# LANA-H2A inh = blocks KSHV LANA binding to histone H2A/H2B | Q9QR71 | cell-free LANA-H2A/H2B peptide, fluorescence polarization | inhibition, % (concentration not given with the values) | 320,000 tested, 0.6% active | AID 2629; in the data active = inhibition mostly above about 10%, no sharp cut-off; inactive = mostly below about 6.7%;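 note: stock transfer was 7.5 nL into about 10 µL; 0% = median of vehicle wells and 100% = median of positive control wells; one replicate is shown; the record names a cut of 25% in any replicate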
# Beta apoptosis = beta cell apoptosis inhibition. INS-1E cytokine-induced death, ATP luminescence, 48 h; percent of positive-control rescue, neutral wells zero. protection from apoptosis, % (test concentration not listed). 300,000 tested, 0.8% active. AID 435005;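 active = all replicates at 75% or more, or half of them and the mean; inconclusive = half reach 75% but not the mean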;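 note: 0% = cytokine-treated negative control wells and 100% = positive control rescue; higher means more ATP so stronger rescue from cytokine killing; wells of about 40 µL received 100 nL stock; the first replicate is given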
# Calb FLC = C. albicans growth modulation with fluconazole; growth inhibition, % (no concentration beside the values); 300,000 tested, 0.57% active; C. albicans CaCi-2 (fluconazole-resistant clinical isolate) + fluconazole, Alamar Blue growth, 48 h;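 active = most replicates above 75%; inconclusive = exactly half above 75%; inactive = most below 75%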;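 note: all wells also contain fluconazole at 8 µg/ml as a sub-toxic cotreatment; 0% = median of DMSO wells and 100% = median of geldanamycin control wells; wells of about 8 µL received 7.5 nL stock; the first replicate is given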
# RanGTP-Imp inh = inhibitors of RanGTP-importin-beta interaction, primary screen, biochemical, FRET, CFP-Ran, YFP-importin-beta, homogeneous. 300,000 tested, 1.1% active. cell-free CFP-Ran/YFP-importin-beta FRET ratio. AID 2216. inhibition, % (concentration not given with the values);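 active = most replicates above 15%; inconclusive = exactly half above 15%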;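 note: 0% = DMSO wells and 100% = Ran loaded with GDP instead of GTP; wells of about 40 µL received 100 nL stock; the first replicate is given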
# UCH37 DUB inh = blocks the human deubiquitinase UCH37 | purified proteasome/UCH37, Ub-AMC cleavage fluorescence | inhibition, % (no concentration beside the values) | 330,000 tested, 0.33% active | AID 588478;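 active = mean of two replicates above 20%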;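 note: 0% = compound-free wells with enzyme and 100% = wells lacking proteasome; stock transfer was 100 nL into about 20 µL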
# Target sequence (Q9Y5K5 whole entry, looked up): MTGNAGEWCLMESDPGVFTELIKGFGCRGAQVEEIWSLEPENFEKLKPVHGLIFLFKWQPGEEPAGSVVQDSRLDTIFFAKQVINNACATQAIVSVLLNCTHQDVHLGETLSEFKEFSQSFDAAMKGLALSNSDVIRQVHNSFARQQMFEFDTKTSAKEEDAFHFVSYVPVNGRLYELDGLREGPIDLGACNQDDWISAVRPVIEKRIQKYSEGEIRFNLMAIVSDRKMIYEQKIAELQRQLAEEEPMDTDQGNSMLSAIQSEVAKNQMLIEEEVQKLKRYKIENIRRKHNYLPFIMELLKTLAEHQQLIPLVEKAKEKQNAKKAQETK
#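 assay system = human UCH37 enzyme supplied as purified proteasome complex | amount = proteasome at 0.15 nM in the dispensed enzyme solution | schedule = 30 min compound-proteasome preincubation then 25 min substrate reaction, room temperature | measured by = fluorescence, ex 355 nm, em 460 nm | benchmarks = no-proteasome wells (full inhibition) and compound-free wells (no inhibition)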
# Bfl-1 A1 inh = inhibitors of the anti-apoptotic protein A1, read as caspase activation. 330,000 tested, 0.066% active. AID 2462. MEF A1-2A-BIM cells, Caspase-Glo 3/7 luminescence, 3 h; percent of clofoctol response, vehicle zero. caspase activation, % (test concentration not listed);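 active = over half of replicate activation scores above 10%, or exactly half above 10 with the replicate mean above 10; inconclusive = replicate mean below 10 yet half the replicates above 10; inactive = over half of replicates below 10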;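 note: wells of about 30 µL received 50 nL stock; many hits fall short of the cut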
# T cruzi inh = blocks replication of Trypanosoma cruzi | T. cruzi beta-gal in NIH3T3, luminescence, 90 h | inhibition, % (test concentration not listed) | 300,000 tested, 1.4% active | AID 1885;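 active = mean inhibition across valid replicates above about 55%, limit read from the data; inconclusive = mean below that limit but half or more replicates reach it; inactive = mean below it, under half of replicates reach it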;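 note: signal also drops with host cell toxicity which is not excluded here; 0% = plate median of DMSO wells and 100% = zero luminescence signal; higher percent means less beta-gal luminescence so fewer parasites; stock transfer was 50 nL into about 50 µL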
# Beta2AR agonist = activates human beta-2 adrenergic receptor causing internalization; P07550; Am2.2-beta2AR cells, FAP receptor internalization, flow cytometry; reference of the scale not given here; response, % (test concentration not listed); 340,000 tested, 0.43% active; AID 504454;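 active = response above a set limit, near 3 SD of response in nonfluorescent compounds, cut at about 42% in these data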;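 note: stock transfer was 100 nL into about 11 µL; a reference agonist was the positive control; negative values mostly stem from fluorescent compounds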
# Target sequence (P07550 whole entry, looked up): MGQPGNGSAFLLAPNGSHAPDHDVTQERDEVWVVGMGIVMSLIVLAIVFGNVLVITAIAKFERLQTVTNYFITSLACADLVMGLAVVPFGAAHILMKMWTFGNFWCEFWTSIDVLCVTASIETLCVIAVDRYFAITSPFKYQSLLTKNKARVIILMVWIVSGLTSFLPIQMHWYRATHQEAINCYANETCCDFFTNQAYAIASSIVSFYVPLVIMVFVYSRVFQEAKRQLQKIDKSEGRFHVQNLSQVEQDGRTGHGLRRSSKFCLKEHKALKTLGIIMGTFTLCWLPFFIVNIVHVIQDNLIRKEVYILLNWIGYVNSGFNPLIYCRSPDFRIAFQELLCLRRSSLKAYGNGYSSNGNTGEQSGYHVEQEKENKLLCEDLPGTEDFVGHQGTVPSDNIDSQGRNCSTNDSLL
# Starred values were filed as active, the others as inactive; i = inactive; u = inconclusive; x = no result given.
canonical_smiles,Beta apoptosis,Beta2AR agonist,T cruzi inh,RanGTP-Imp inh,Calb FLC,UCH37 DUB inh,Bfl-1 A1 inh,LANA-H2A inh
Cc1ccc(S(=O)(=O)NC(CC(=O)NCC2CCCO2)c2ccco2)cc1 (stereo unspecified),-3,1,-18,0.1,-9,3.0,0.8,0.7
COc1ccc(OCCCC(=O)N2CCCc3ccccc32)cc1,-5,1,11,0.9,-7,-0.5,0.4,-5.0
O=C(NCc1ccc(N2CCCC2=O)cc1)c1cccc(Cl)c1,-4,-2,4,-0.6,6,2.7,0.6,i
COc1ccc(N2C(=O)CSC2c2cccs2)cc1 (stereo unspecified),-2,2,1,-2.7,10,2.7,-0.1,2.7
CCC(C)NC(=O)Cn1ccc2cc(S(=O)(=O)N3CCCCCC3)ccc21 (stereo unspecified),-2,9,-7,0.9,-1,5.2,0.2,-3.1
Cc1nc(N2CCN(S(=O)(=O)c3cccc4nonc34)CC2)c2c3c(sc2n1)CCCC3,x,19,29,1.5,5,2.9,x,x
Cc1nc(SCc2nc3c(O)cccc3[nH]2)c2oc3ccccc3c2n1,-3,5,x,x,x,3.7,-0.1,1.2
O=C1C(c2ccc(F)cc2)N(Cc2ccc3c(c2)OCO3)C(=O)CN1C1CCCC1 (stereo unspecified),-5,-3,6,2.9,-40,4.8,0.5,-5.8
O=C(NC1=NCCS1)c1ccc(OCC2CCCO2)cc1 (stereo unspecified),-5,-7,-2,u,1,-0.9,-1.9,-2.0
COc1cc(OC)nc(NC2OC(=O)c3ccccc32)n1 (stereo unspecified),0,3,-7,5.7,-2,0.8,0.1,-0.7
COc1cc2ccccc2cc1C(=O)Nc1ccc(Br)cn1,11,4,13,-3.7,4,-9.9,-0.4,2.0
O=C(c1cccc(C(F)(F)F)c1)N1CCCC1,-3,-4,-3,5.5,-33,5.6,0.6,0.8
COc1ccc2[nH]c(=O)cc(C(=O)O)c2c1,-6,-2,-9,5.9,2,-374,0.6,0.2
COc1cccc(OC)c1C(=O)Nc1ccc(S(=O)(=O)N2CCCCC2)cc1,-1,17,-5,2.7,-8,1.9,0.2,0.3
O=C(Nc1cccc(S(=O)(=O)Nc2ccc(SC(F)F)cc2)c1)C1CCC1,6,-11,x,x,x,2.0,0.0,-3.8
Cc1ccc(NC(=O)c2cc(=O)c3ccccc3o2)cc1S(=O)(=O)N1CCOCC1,3,2,20,10,18,0.8,1.0,-6.2
COCC(C)n1c(C)cc(C(=O)COC(=O)c2ccc3c(c2)NC(=O)CS3)c1C (stereo unspecified),-3,1,21,3.2,-4,1.7,2.5,1.8
CC(C)(C)c1ccc(C(=O)c2c[nH]c(C(=O)O)c2)cc1,6,4,-23,u,-8,1.0,-7.6,1.3
CC(C)[C@H](NC(=O)c1ccccc1)C(=O)OCC(=O)N1CC2(C)CC1CC(C)(C)C2 (stereo partly specified),0,-1,16,4.3,-10,5.9,0.5,8.0
Cn1c2c(c(=O)n(C)c1=O)C(CC(=O)Nc1ccccc1)C(=O)N2 (stereo unspecified),-2,-4,-13,-1.1,-1,5.5,0.0,0.2
Cc1oc2c(C)c(O)ccc2c(=O)c1N1C(=O)c2ccccc2C1=O,-20,10,-5,1.6,2,2.3,0.7,-5.2
CCOC(=O)c1c(NC(=O)C2COc3ccccc3O2)sc2c1CCN(Cc1ccccc1)C2 (stereo unspecified),22,6,49,90*,-9,2.3,0.8,-1.2
Cc1cc(=O)oc2cc(OCC(=O)NCCCN3CCCC3=O)ccc12,-3,0,-11,-0.6,-4,-27,1.5,5.4
Cc1cc(C)n2nc(C(=O)N3CCN(c4ccc([N+](=O)[O-])cc4)CC3)nc2n1,-6,-5,9,-2.1,-3,11,0.1,4.3

# Sorted by molar mass (low to high): some entries from above
canonical_smiles,Beta apoptosis,Beta2AR agonist,T cruzi inh,RanGTP-Imp inh,Calb FLC,UCH37 DUB inh,Bfl-1 A1 inh,LANA-H2A inh
CC(C)(C)c1ccc(C(=O)c2c[nH]c(C(=O)O)c2)cc1,6,4,-23,u,-8,1.0,-7.6,1.3
Cc1cc(=O)oc2cc(OCC(=O)NCCCN3CCCC3=O)ccc12,-3,0,-11,-0.6,-4,-27,1.5,5.4
CC(C)[C@H](NC(=O)c1ccccc1)C(=O)OCC(=O)N1CC2(C)CC1CC(C)(C)C2 (stereo partly specified),0,-1,16,4.3,-10,5.9,0.5,8.0
Cc1ccc(NC(=O)c2cc(=O)c3ccccc3o2)cc1S(=O)(=O)N1CCOCC1,3,2,20,10,18,0.8,1.0,-6.2

# Carrying on.
canonical_smiles,Beta apoptosis,Beta2AR agonist,T cruzi inh,RanGTP-Imp inh,Calb FLC,UCH37 DUB inh,Bfl-1 A1 inh,LANA-H2A inh
Cc1onc(-c2ccccc2Cl)c1C(=O)NNC(=O)c1ccc(F)cc1,-5,-6,1,-0.7,0,3.4,-0.2,1.4
CCC(C)NCCOCCOc1ccc(Cl)c(C)c1C (stereo unspecified),6,24,59*,3.4,-3,6.7,0.5,1.1
O=C(CCN1CCCCC1)NNC(=O)C12CC3CC(CC(C3)C1)C2,-5,-2,1,2.0,-3,2.3,1.8,-1.6
COc1ccc(S(=O)(=O)NC(C)C)cc1-n1cnnn1,0,0,-6,-3.1,2,0.7,0.7,3.0
COc1cc2[nH]c(C(=O)Nc3ccc4c(c3)OCCO4)cc2c(OC)c1OC,x,11,2,-0.4,-7,-1.3,-1.9,0.3
COc1ccc(CCC(=O)N/N=C\c2cccs2)cc1,-12,-7,-21,4.6,-17,x,1.1,-2.1
CC(C)N(CCNC(=O)c1nn(Cc2ccccc2)c(=O)c2ccccc12)C(C)C,9,-1,55*,2.6,0,x,-0.1,7.0
CC(C)=CCN1CCN(CCCn2cccn2)CC1CCO (stereo unspecified),2,0,-12,3.2,-25,4.8,0.3,5.6
O=C(Cn1ccsc1=NC(=O)C(F)(F)F)c1ccccc1,1,3,17,-3.1,-7,5.2,0.5,-2.7
Cc1ccc(OCc2nc(C#N)c(NCc3ccco3)o2)cc1,-6,-5,4,-1.4,7,-0.1,-0.5,0.0
CN(Cc1ccccc1)C(=O)CCC1CCN(C(=O)CC2=CCCCC2)CC1,x,-3,15,-0.8,0,x,x,x
COC(=O)C1=C(N)OC2=C(C(=O)CCC2)C1c1cccs1 (stereo unspecified),-3,7,-11,-3.4,4,-0.5,1.1,-9.6
COc1cccc(C2N(c3ccc(Cl)cc3)C(=O)C3CCCN32)c1 (stereo unspecified),-5,-2,-6,1.5,-7,0.7,-0.1,1.4
O=C(NCc1ccc(F)cc1Cl)C1CCN(S(=O)(=O)N2CCCCC2)CC1,1,2,7,-0.1,u,4.8,-0.4,-3.7
Cc1cc[n+](C(C)C(=O)c2ccc(-c3ccccc3)cc2)cc1 (stereo unspecified),99*,-2,73*,x,-18,-2.2,-0.1,-3.7
COc1ccc(/C=C/c2c([N+](=O)[O-])c(=O)n(C)c(=O)n2C)cc1,-1,-2,13,1.1,2,2.6,0.8,-1.3
O=C(NC1CCCCC1)C(c1ccc(F)cc1)N(Cc1ccccc1)C(=O)CN1C(=O)c2ccccc2S1(=O)=O (stereo unspecified),3,-9,-2,1.1,-1,1.5,-0.8,1.0
CCOc1ccc(NC(=O)CSc2nc(N)c(-c3ccccc3)c(=O)[nH]2)cc1,-4,4,-8,4.0,11,1.4,0.6,4.5
CCc1cccc(NS(=O)(=O)c2ccc3c(c2)CCC(=O)N3)c1,x,6,10,-1.2,-4,1.7,0.3,-0.9
COc1ccc(NC(=O)CN(C)C(=O)c2cccc(S(=O)(=O)N3CCN(c4ccccc4)CC3)c2)cc1,13,6,-2,5.4,-9,-0.4,0.6,-1.5
COc1ccc(NC(=O)CN(C)C(=O)c2ccc(NS(=O)(=O)c3cccc([N+](=O)[O-])c3)cc2)cc1,0,-1,0,1.6,14,1.7,0.3,2.3
O=C(CSc1nnc(-c2cccnc2)n1-c1ccccc1)Nc1ccccc1,-3,-10,18,4.8,-22,3.1,0.7,15*
Cc1onc(-c2ccccc2Cl)c1C(=O)N(C)C1CCCCC1,53,-2,11,3.9,-2,4.3,-0.3,-3.1
Cc1ccccc1-c1nnc(SCCC(=O)N2CCOCC2)o1,-3,-3,-4,-4.1,-8,1.3,1.3,1.9
COc1ccc(N2CCN(c3ccc(NC(=O)c4ccc5c(c4)OCO5)cc3C#N)CC2)cc1,-1,5,-10,2.4,1,-71,0.3,2.5
CCn1c(CN2C(=O)CSc3ccccc32)n[nH]c1=S,-3,2,18,4.7,3,0.6,-0.8,-1.2
CCOC(=O)C1CCN(C(=O)c2ccc3c(c2)NC(=O)/C(=C\c2cccc(C)c2)S3)CC1,8,8,11,7.6,11,-14,u,0.5
COc1ccc(OC)c(CCNC(=O)c2ccccc2NC(=O)C2=C(C)OCCS2)c1,-7,7,13,7.1,28,7.0,-0.5,3.0
Cc1c(NC(=S)NC(=O)c2ccccc2)c(=O)n(-c2ccccc2)n1C,x,14,1,-1.6,1,5.0,-0.9,0.0
CCN1CCN(CCCNC(=O)c2ccc(/C=C3/Oc4ccccc4N(Cc4cccc(C)c4)C3=O)cc2)CC1,27,31,48,0.8,10,i,0.4,0.1
Cc1cc(C(=O)N2CCCC(Nc3ccccc3)C2)c2ccc(F)cc2n1 (stereo unspecified),-1,5,22,-0.9,-4,2.2,0.5,-2.6
CC/C(O)=C1\C(=O)CCCC1=NCCc1nc2ccccc2[nH]1,1,-7,0,2.3,-6,3.6,0.1,-1.4
CCSc1nnc(NC(=O)Cc2ccccc2OC)s1,0,7,0,-2.4,-6,2.5,-0.3,-6.5
CC(NC(=O)COc1ccccc1)C(=O)N1CCN(c2ccc(F)cc2)CC1 (stereo unspecified),0,-5,x,x,x,0.8,-0.5,0.6
O=C(Cc1ccccc1)NNS(=O)(=O)c1ccc(F)cc1,-1,6,-25,u,2,-0.7,-0.3,6.6
CCOC(=O)CN1CC23C=CC(O2)C(C(=O)Nc2ccc4c(c2)OCO4)C3C1=O (stereo unspecified),-4,8,3,0.2,-16,4.8,-0.2,5.9
CCOC(=O)Cc1ccc(NCc2ccc(Cl)cc2)cc1,-8,7,56*,6.3,-14,1.0,-0.6,11
COc1cccc(N2CC(O)Cn3c2nc2c3c(=O)n(CCCc3ccccc3)c(=O)n2C)c1 (stereo unspecified),2,9,11,-2.3,-25,-1.0,-0.2,-1.7
O=C(NCC(O)CN1CCOCC1)c1ccc([N+](=O)[O-])cc1 (stereo unspecified),-4,8,3,-1.3,12,2.2,0.7,-7.9

# Entries above marked active in RanGTP-Imp inh:
structure,Beta2AR agonist,RanGTP-Imp inh,UCH37 DUB inh,LANA-H2A inh
CCOC(=O)c1c(NC(=O)C2COc3ccccc3O2)sc2c1CCN(Cc1ccccc1)C2 (stereo unspecified),6,90*,2.3,-1.2

# Compound activity: PubChem, several laboratories
